# Screens: PubChem BioAssay, National Center for Advancing Translational Sciences (NCATS)
# StopGo reporter – lowers the luciferase signal of an FMDV 2A StopGo reporter; human cells with a luciferase reporter of 2A StopGo recoding; control for the full effect not named in the record; 1.2% of 410,000 active; Potency, µM (titrated, usually from 57.9 µM), inactives show top-dose signal change, negative = less light; AID 1159524; active = well fitted falling curve with a large enough effect; inconclusive = small, poorly fitted or top-dose-only effect; inactive = no such curve, though single readings can be large or run the other way; tested in HEK293T cells; also: nearly all actives have a fitted effect of over 45% in size; luciferase light after 4 h
# Starred values were filed as active, the others as inactive; ? = inconclusive; [ ] = dose if it differs, or a comment. % is scaled to controls: 0 for no effect and ±100 for the full control effect; potency is read from the fitted curve at half-maximal effect. This is a subset. The share of hits here may be higher or lower than overall.
SMILES,StopGo reporter
C[C@H](CCC(=O)NCCS(=O)(=O)O)C1CC[C@H]2C3CC[C@@H]4C[C@H](O)CC[C@]4(C)C3C[C@H](O)[C@]12C (stereo partly drawn),-4.4%
COc1ccc(OC)c(CN2CCOc3ccc(C(O)c4cccnc4)cc3C2)c1 (stereo not drawn),-4.2%
Cc1c(C(=O)NCC(C)(C)N2CCOCC2)cnn1-c1ncc2c(n1)-c1ccccc1CC2,0.5%
COCCCNC(=O)c1cnn(-c2ncc3c(n2)-c2ccccc2CCC3)c1C,40.0%[activator]
Cc1nc(NCc2ccc3nsnc3c2)sc1-c1ccn(C)n1,16.1%
Oc1cc(-c2nc3ccccc3s2)cc2c1OCCN(Cc1cccn1-c1ccccn1)C2,15.8%
COc1ccc(CN2CCCC(c3nc(C)ncc3-c3ccc(F)cc3)C2)c(OC)c1OC (stereo not drawn),-10.3%
Cc1c(CN2CCOc3ccc(C(C)(O)COc4ccccc4)cc3C2)cnn1C (stereo not drawn),-12.5%
O=C(c1ccc(F)c(F)c1)N1CCOc2ccc(CN3CCN(Cc4ccccn4)CC3)cc2C1,-2.5%
COc1ccccc1-c1ccnc(-n2ncc(C(=O)N[C@H]3CCCCNC3=O)c2C2CC2)n1,39.9%[activator]
O=C(c1ccco1)N(Cc1cc2cc3c(cc2nc1N1CCOCC1)CCC3)CC1CCCO1 (stereo not drawn),9.7%
COc1ccc(C(=O)NCc2nnc(SC)n2-c2ccccc2C)c(OC)c1OC,-17.7%
COCc1c(C(=O)NC2CCCC2)cnn1-c1nccc(-c2ccco2)n1,17.8%
COc1ccccc1N1CCN(c2nc(CNC(=O)c3ccccc3F)nc3ccccc23)CC1,0.3%
CN(Cc1ccc2c(c1)CN(C(=O)c1cccc(N(C)C)c1)CCO2)Cc1cc(C2CC2)n[nH]1,-25.1%
O=C(Cc1c[nH]c2ccccc12)N1CCC(n2c(C3CCCO3)nc3cc(C(F)(F)F)ccc32)CC1 (stereo not drawn),-5.8%
CCC1(C2CCN(C(=O)c3cc4ccccc4o3)CC2)NC(=O)N(CCc2scnc2C)C1=O (stereo not drawn),14.2%
CCn1c(-c2ccccc2F)nc2cc(NC(C)=O)cc(C(=O)N(C)Cc3cn(C)nc3C)c21,-9.9%
OC1(c2cccnc2)CCN(Cc2ccc3c(c2)CN(Cc2ccc(Cl)cc2)CCO3)CC1,-20.3%
Cc1cc(-c2ccnc(-n3ncc(C(=O)NC(C)(C)CO)c3C3CC3)n2)c(C)s1,6.7%
Cc1cccnc1-c1cccc2c1OC(CNC(=O)Cn1cncn1)C2 (stereo not drawn),0.2%
COc1cc(=O)n2c(c1C(=O)N(C)Cc1nonc1C)CCN(Cc1cc(C)c(C)cc1C)CC2,-13.5%
CCC1(C2CCN(Cc3cccnc3)CC2)NC(=O)N(CC2COc3ccccc3O2)C1=O (stereo not drawn),-16.1%
COc1ccc(C(=O)Nc2sc3c(c2C(N)=O)CCCC3)cc1OC,16.5%
CCN(CC)CCNC(=O)c1cnn(-c2ncc3c(n2)-c2ccc(OC)cc2CC3)c1C,-17.7%
COc1cc(=O)n2c(c1C(=O)NC(C)c1ccco1)CCN(C(=O)c1cccc(C)c1C)CC2 (stereo not drawn),27.0%
O=C(NCC1Cc2cccc(-c3ncccn3)c2O1)C1CCCO1 (stereo not drawn),-2.1%
COC(=O)[C@@H]1CCCN1Cc1ccc2c(c1)CN(Cc1ccc3c(c1)CCO3)CCO2,-6.9%
Nc1ncnc2c1ncn2[C@@H]1O[C@H](COP(=O)(O)OP(=O)(O)CP(=O)(O)O)[C@@H](O)[C@H]1O,21.7%
CCC1CN(Cc2cccn2-c2ccccn2)Cc2cc(OC)ccc2O1 (stereo not drawn),26.2%

# Reformatted tab-delimited: entries from further up.
structure	StopGo reporter
CCN(CC)CCNC(=O)c1cnn(-c2ncc3c(n2)-c2ccc(OC)cc2CC3)c1C	-17.7%
COc1cc(=O)n2c(c1C(=O)NC(C)c1ccco1)CCN(C(=O)c1cccc(C)c1C)CC2 (stereo not drawn)	27.0%
O=C(NCC1Cc2cccc(-c3ncccn3)c2O1)C1CCCO1 (stereo not drawn)	-2.1%
COC(=O)[C@@H]1CCCN1Cc1ccc2c(c1)CN(Cc1ccc3c(c1)CCO3)CCO2	-6.9%
Nc1ncnc2c1ncn2[C@@H]1O[C@H](COP(=O)(O)OP(=O)(O)CP(=O)(O)O)[C@@H](O)[C@H]1O	21.7%

# (further entries)
SMILES,StopGo reporter
CC(C)C(NC(=O)c1ccoc1)c1nnc2n1CCN(Cc1ccc3c(c1)Cc1ccccc1-3)CC2 (stereo not drawn),-11.5%
CN(C)c1nc(CN2CCCCC2c2cccnc2)nc2ccccc12 (stereo not drawn),-14.1%
O=C(c1ccccc1C(F)(F)F)N1CCOc2c(cc(-c3nc4ccccc4s3)cc2OC2CCOC2)C1 (stereo not drawn),-0.3%
Cc1nc(C)c(C(=O)NCc2nc(-c3cccc(NC(=O)c4ccccn4)c3)oc2C)s1,-20.8%
Nc1ncnc2c1ncn2[C@@H]1O[C@H](COP(=O)(O)OP(=O)(O)OC[C@H]2OC(O)[C@H](O)[C@@H]2O)[C@@H](O)[C@H]1O (stereo partly drawn),7.6%
O=C(c1cscn1)N1CCOc2ccc(CN3CCC(Oc4cccnc4)CC3)cc2C1,-14.9%
Cc1cnc(-n2ncc(C(=O)NCc3cccnc3)c2C)nc1-c1ccc(F)cc1,-25.5%
CS(=O)(=O)Nc1c(O)ccc2c1CCCC2C1=NCCN1 (stereo not drawn),-3.1%
CC(=O)CCC(=O)N1CCC(n2c(C3CCCO3)nc3cc(C(F)(F)F)ccc32)CC1 (stereo not drawn),-8.6%
COc1ccccc1CN1CCCC(n2cc(C(=O)N3CCCC3)nn2)C1 (stereo not drawn),-18.3%
Cc1ncc2c(c1CNC(=O)c1ccccc1F)CCN(C(=O)c1csc(-c3cccs3)n1)C2,-8.3%
COC(=O)c1ccc(CN2C[C@H](Sc3ccccn3)C[C@H]2C(=O)N(C)C)cc1,10.8%
C=C1O[C@@](CO)(n2cnc3c(N)ncnc32)[C@H](O)[C@@H]1O,3.4%[97.4 µM]
Cc1ncc2c(c1CNC(=O)c1ccc3c(c1)OCO3)CCN(C(=O)c1ccc3ccccc3c1)C2,-9.2%
COc1ccccc1-c1ccnc(-n2ncc(C(=O)NCCc3ccncc3)c2C)n1,19.0%
O=C(CN1Cc2ccccc2OC(c2ccsc2)C1)NCc1ccc2c(c1)OCO2 (stereo not drawn),-2.6%
COC(=O)C1CCCCN1Cc1ccc2c(c1)CN(Cc1cn[nH]c1-c1ccc(F)cc1)CCO2 (stereo not drawn),-29.9%
Nc1cc(N2CCCCC2)nc(N)[n+]1OS(=O)(=O)[O-],11.7%[97.4 µM]
COc1ccc2c(c1)CCc1cnc(-n3ncc(C(=O)NCc4cc(C)no4)c3C3CC3)nc1-2,13.6%
Cc1cc(C(=O)NCCN2Cc3ccccc3OC(c3ccccc3F)C2)no1 (stereo not drawn),-5.7%
O=c1c(CN2CCOc3ccc(CN4CCC(Oc5cccnc5)CC4)cc3C2)coc2ccccc12,-10.3%
C=C1CC[C@H](O)C/C1=C/C=C1\CCC[C@]2(C)C([C@H](C)CCCC(C)(C)O)CC[C@@H]12 (stereo partly drawn),2.0%[6.7 µM]
O=[N+]([O-])c1ccc(CSc2ncnc3c2ncn3C2OC(CO)C(O)C2O)cc1 (stereo not drawn),-0.5%
CN(Cc1cccc2ncccc12)C(=O)c1cnn(-c2ncc3c(n2)-c2ccccc2CC3)c1C1CC1,28.2µM*
CCn1nc(C)cc1C(=O)NCC1Cc2cccc(-c3cccnc3)c2O1 (stereo not drawn),-25.2%
Clc1ccc(-n2cccc2CN2CCc3nnc(Cc4ccccc4)n3CC2)nc1,-13.0%
CCN(Cc1ccncc1)Cc1ccc2c(c1)CN(C(=O)c1ccccc1-n1cccn1)CCO2,-10.1%
CC(=O)Nc1cc(C(=O)N2CC3(C)CC2CC(C)(C)C3)cc2ncn(CCc3ccccn3)c12 (stereo not drawn),21.3%
CC(=O)N1CCC[C@H]1C(=O)NCC1Cc2cc(Cl)cc(-c3ccc4[nH]ccc4c3)c2O1 (stereo partly drawn),16.0%
COc1ccccc1-c1ccnc(-n2ncc(C(=O)NCC3(N4CCOCC4)CCCC3)c2C)n1,-3.0%
COc1cc2c(cc1OC)CN(C(=O)[C@@H]1C[C@H](NCc3cn(C)c4ccccc34)CN1C1Cc3ccccc3C1)CC2,-5.0%
COC(=O)c1c(OCCN2CCCCC2)cc(=O)n2c1CCN(Cc1cccc3nccnc13)CC2,1.7%
COC(=O)c1ccccc1-c1cc(C)cc2c1OC(CNC(=O)c1cc(C)n(C)n1)C2 (stereo not drawn),20.3%
Cc1ccccc1C(=O)NC(C)c1nnc2n1CCN(Cc1ccnc3ccccc13)CC2 (stereo not drawn),4.9%
CC(C)OC(=O)c1cc2c(OCC(O)CNC(C)(C)C)cccc2[nH]1 (stereo not drawn),0.5%
CCC(=O)NC1CCc2cccc(OC)c2C1 (stereo not drawn),1.7%
Cc1cccc(CNC(=O)c2cnn(-c3nccc(-c4ccccc4F)n3)c2C)n1,-7.7%
COCC(=O)Nc1cc(C(=O)N2CCCOc3c(cccc3OC)C2)c2c(c1)nc(C1CCC1)n2C,-2.5%
Cc1ncc2c(c1CNC(=O)c1ccc3c(c1)OCO3)CCN(C(=O)c1coc3c1C(=O)CCC3)C2,7.8%
CO[C@H]1C=CO[C@@]2(C)Oc3c(C)c(O)c4c(O)c(c(C=NN5CCN(C)CC5)c(O)c4c3C2=O)NC(=O)C(C)=CC=C[C@H](C)[C@H](O)[C@@H](C)[C@@H](O)[C@@H](C)[C@H](OC(C)=O)[C@H]1C,-11.3%[16.9 µM]
OC(c1ccc2c(c1)CN(Cc1cccn1-c1ncccn1)CCO2)C1CCCCC1 (stereo not drawn),-19.0%
COc1cccc(CNC(=O)c2c(OC)cc(=O)n3c2CCN(C(=O)c2ccoc2C)CC3)c1,-4.1%
COc1ccc(C(=O)NCC2Cc3cc(C)cc(-c4nc5ccccc5s4)c3O2)c(OC)c1OC (stereo not drawn),-26.3%
CC(C)Cc1nc2cc(NS(=O)(=O)N(C)C)cc(C(=O)N3CC4(C)CC3CC(C)(C)C4)c2n1C (stereo not drawn),23.0%
CCN1CCCC1CNC(=O)c1cnn(-c2nccc(-c3ccccc3F)n2)c1C (stereo not drawn),-5.7%
COc1c(F)cc2[nH]c3c(c2c1F)CCNC3=O,-18.5%
COc1cc(-c2nc(C)cnc2C)cc2c1OCCN(C(=O)Cc1cc(OC)c(OC)c(OC)c1)C2,-4.6%
OCCNc1nc(Nc2ccc(Cl)cc2)nc(N2CCCC2)n1,-7.4%
COc1ccccc1CNc1ncnc2sc(C(=O)N(C)C(C)C)c(C)c12,-11.2%
COC(=O)c1ccccc1C(=O)N1CCOc2ccc(CN3CCN(c4ccccn4)CC3)cc2C1,-14.7%

# The closing three entries of the section before come first, to join the parts.
SMILES,StopGo reporter
OCCNc1nc(Nc2ccc(Cl)cc2)nc(N2CCCC2)n1,-7.4%
COc1ccccc1CNc1ncnc2sc(C(=O)N(C)C(C)C)c(C)c12,-11.2%
COC(=O)c1ccccc1C(=O)N1CCOc2ccc(CN3CCN(c4ccccn4)CC3)cc2C1,-14.7%
S=C(NCCCc1cnc[nH]1)NCCCN(Cc1ccccc1)c1ccc(Br)cn1,-13.4%
Cn1ccc(C(=O)NCC2CCC3(CCN(Cc4ccc(F)cc4F)CC3)O2)n1 (stereo not drawn),?
CC(C)N(CCO)Cc1nc(N2CCOCC2)c2cc(Cl)ccc2n1,-2.6%
CCOc1ccc2nc(N3CCCN(CCCn4cccn4)CC3)nc(C)c2c1,-17.5%
O=C(c1cnn(-c2nccc(-c3ccccc3F)n2)c1C1CC1)N1CCN(CCO)CC1,-2.0%
COCCC(=O)NCC1Cc2cc(Cl)cc(-c3ccc4[nH]ccc4c3)c2O1 (stereo not drawn),1.4%
CN(CCO)C(=O)c1cn(C2CCCN(Cc3ccc(C(F)(F)F)cc3)C2)nn1 (stereo not drawn),-15.9%
COc1ccccc1C(=O)N[C@@H]1c2ccccc2C2(CCN(Cc3cnn(C)c3C)CC2)[C@H]1O,3.6%
CCn1nc(Cc2cccc3ccccc23)c(C#N)c1N,0.9%
Cc1cc(-c2ccnc(-n3ncc(C(=O)NCC4CCCO4)c3C3CC3)n2)c(C)s1 (stereo not drawn),44.2%[activator]
C[N+]1(Cc2ccccc2)CCC(C(=O)OCC2CCCC2)CC1 (stereo not drawn),-9.4%
CN[C@@H]1[C@H](O[C@H]2[C@H](O[C@H]3[C@H](O)[C@@H](O)[C@H](N=C(N)N)[C@@H](O)[C@@H]3N=C(N)N)O[C@@H](C)[C@]2(O)CO)O[C@@H](CO)[C@H](O)[C@H]1O,3.9%
O=C(Nc1cccc(N2CCC(NCc3cnn(-c4cccc(F)c4)c3)CC2)c1)c1ccncc1,-29.8%
CO[C@H]1C[C@H](O[C@@H]2/C(C)=C/C[C@@H]3C[C@@H](C[C@]4(CC[C@H](C)[C@@H](C5CCCCC5)O4)O3)OC(=O)[C@@H]3C=C(C)/C(=N/O)[C@H]4OC/C(=C\C=C\[C@@H]2C)[C@]43O)O[C@@H](C)[C@@H]1O,-3.2%
COc1ccc(-c2cc(C)cc3c2OC(CNC(=O)c2cc(C(C)C)on2)C3)nn1 (stereo not drawn),-2.8%
CCOC(=O)C[C@@H](C#N)NC(=O)[C@@H]1CCCN1C(=O)[C@@H](NC(=O)c1ccc(N)c(Cl)c1)C(C)(C)C,?
CCn1c(-c2ccccc2F)nc2cc(C(=O)NCC3CCOCC3)cc(NC(C)=O)c21,-7.2%
Cn1cnnc1Sc1c([N+](=O)[O-])ncn1C,?
COc1ccccc1-c1ccnc(-n2ncc(C(=O)N3CCCCC3c3cccnc3)c2C)n1 (stereo not drawn),12.8%
COc1ccc2c(c1)-c1nc(-n3ncc(C(=O)N(C)CC4CCCN(C)C4)c3C)ncc1CC2 (stereo not drawn),-16.8%
c1ccc(-c2[nH]ncc2-c2ccnc3ccccc23)nc1,-10.3%
COc1cc(=O)n2c(c1C(=O)NCc1ccco1)CCN(C(=O)c1ccc(C)c(C)c1)CC2,-10.5%
